Source: PubChem BioAssay (National Center for Advancing Translational Sciences (NCATS))
gsp ag = gsp mutant agonism. gsp mutant cells, cAMP HTRF, 30 min; control for the full effect not named in the record. Potency, µM (titrated, usually from 76.9 µM), without a hit: top-dose activation (cAMP increase), usual class: activators. 340,000 compounds, 0.13% hits; active = well fitted activation curve with a large enough effect; inconclusive = small, poorly fitted or top-dose-only effect, or another doubt; inactive = no such curve, though single readings can be large or run the other way; cell line not stated here;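 further: phosphodiesterase inhibitor Ro 20-1724 added with compounds to block cAMP breakdown; potency means the concentration at half of the fitted maximal effect; nearly all actives have a fitted effect of over 60% in size; about a fifth of the inactives were tested at one dose only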
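Cells in DMEM/10% FBS with G418 were pretreated with compounds in DMSO plus […] (300 uM stock) for 30 min at 37C. cAMP was measured by HTRF (cAMP-d2 plus anti-cAMP antibody-K) after 30 min at room temperature.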
gsp antag = gsp mutant antagonism; gsp-mutant cells, cAMP HTRF, 30 min; control for the full effect not named in the record; Potency, µM (highest dose often 76.9 µM), inactives show at the top dose activity change, negative = inhibition, actives largely listed as inhibitors; 340,000 compounds, 0.4% hits; AID 624288; active = falling curve of any shape with a large fitted effect; inconclusive = falling curve, mostly with a smaller effect; inactive = flat or rising curve; cell line not stated here;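 further: intracellular cAMP measured with PDE inhibitor Ro 20-1724 present during compound exposure; potency means the concentration at half of the fitted maximal effect; on the % scale 0 is the no-effect control and ±100 the full control effect; nearly all actives have a fitted effect of over 65% in size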
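HTRF cAMP measurement after 30 min RT detection following 30 min, 37C compound treatment alongside […] (added as 300 uM solution) in G418-selected cells seeded at 2000/well and grown 16–24 h.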
ClpP mod = qHTS Assay for Activators of ClpP. purified B. subtilis ClpP, FRET peptide cleavage, 20 min. Potency, µM (doses to about 57.5 µM), for the others: at the top dose activity change, negative = active. 340,000 compounds, 1.9% hits. AID 651965, 2013; active = well fitted falling curve with a large enough effect; inconclusive = small, poorly fitted or top-dose-only effect; inactive = no such curve, though single readings can be large or run the other way; further: potency means the concentration at half of the fitted maximal effect; the source files actives as falling curves though it sought activators and does not explain the sign; nearly all actives have a fitted effect of over 65% in size; many hits overshoot -100%
Target sequence (P80244 whole entry, looked up): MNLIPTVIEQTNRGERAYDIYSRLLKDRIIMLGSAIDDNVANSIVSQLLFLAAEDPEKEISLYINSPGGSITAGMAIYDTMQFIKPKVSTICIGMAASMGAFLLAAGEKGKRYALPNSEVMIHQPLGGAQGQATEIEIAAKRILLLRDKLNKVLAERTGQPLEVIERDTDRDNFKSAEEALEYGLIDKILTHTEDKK
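Purified B. subtilis ClpP, 10 microg/mL final in Tris/HCl pH8 with KCl, BSA, glycerol and Tween-20, cleaved an Abz/nitrotyrosine-quenched decapeptide. Fluorescence (ex 320, em 430) was read at 0 and 20 min at room temperature. Delta was normalized to 5.8 microM ADEP and DMSO/no-enzyme controls.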
Sfp PPTase inh = Sfp phosphopantetheinyl transferase inhibition; Biochemical Sfp PPTase activity, qHTS; AID 1490; 310,000 compounds, 3.5% hits; Potency, µM, for inactives: max response, negative = inhibition, most hits filed as inhibitors; active means well fitted inhibition curve with a large enough effect; inconclusive means small, poorly fitted or top-dose-only effect, or another doubt; inactive means no such curve, though single readings can be large or run the other way;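 further: the enzyme is Sfp with the accession as filed and its product quenches rhodamine fluorescence; potency means the concentration at half of the fitted maximal effect; 0% = enzyme reaction without inhibitor and -100% = no enzyme wells; top concentration of the series not given in the record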
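Buffer: 50 mM Hepes-Na pH 7.6, 10 mM MgCl2, 0.01% Nonidet P-40, 0.01% BSA. Enzyme 15 nM, pre-exposed to compound 15 min; substrates then added and fluorescence change tracked over 30 min.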
CtBP-E1A inh = CtBP/E1A binding inhibition; activity change, % (concentration not given with the values); AlphaScreen GST-E1A/His-CtBP binding, 1536-well; active compounds read low; control for the full effect not named in the record; 340,000 compounds, 0.49% hits; in the data active means activity change below about -65%; inconclusive means about -30% to -65%; inactive means above about -30%; further: on the % scale 0 is the no-effect control and ±100 the full control effect
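AlphaScreen with 125 nM GST-E1A and 125 nM His-CtBP (5X stocks) in Tris pH 8.0, 300 mM NaCl, BSA, Tween 20, TCEP. Compounds preincubated 2 h at 37 deg C, then glutathione donor/nickel acceptor beads added for 1 h at 37 deg C in dark.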
TRPV1 potentiator = enhances activation of the human vanilloid receptor TRPV1; Q8NER1; TRPV1-expressing cells, Fluo-8 calcium influx, capsaicin EC20 potentiation; host cell line not named in the record; control for the full effect not named in the record; potentiation, % at 8.33 µM; 320,000 compounds, 0.02% hits; AID 540277; active means potentiation above 80%; inconclusive means 30% to 80%; inactive means below 30%; further: 0% is about no effect
Target sequence (Q8NER1 whole entry, looked up): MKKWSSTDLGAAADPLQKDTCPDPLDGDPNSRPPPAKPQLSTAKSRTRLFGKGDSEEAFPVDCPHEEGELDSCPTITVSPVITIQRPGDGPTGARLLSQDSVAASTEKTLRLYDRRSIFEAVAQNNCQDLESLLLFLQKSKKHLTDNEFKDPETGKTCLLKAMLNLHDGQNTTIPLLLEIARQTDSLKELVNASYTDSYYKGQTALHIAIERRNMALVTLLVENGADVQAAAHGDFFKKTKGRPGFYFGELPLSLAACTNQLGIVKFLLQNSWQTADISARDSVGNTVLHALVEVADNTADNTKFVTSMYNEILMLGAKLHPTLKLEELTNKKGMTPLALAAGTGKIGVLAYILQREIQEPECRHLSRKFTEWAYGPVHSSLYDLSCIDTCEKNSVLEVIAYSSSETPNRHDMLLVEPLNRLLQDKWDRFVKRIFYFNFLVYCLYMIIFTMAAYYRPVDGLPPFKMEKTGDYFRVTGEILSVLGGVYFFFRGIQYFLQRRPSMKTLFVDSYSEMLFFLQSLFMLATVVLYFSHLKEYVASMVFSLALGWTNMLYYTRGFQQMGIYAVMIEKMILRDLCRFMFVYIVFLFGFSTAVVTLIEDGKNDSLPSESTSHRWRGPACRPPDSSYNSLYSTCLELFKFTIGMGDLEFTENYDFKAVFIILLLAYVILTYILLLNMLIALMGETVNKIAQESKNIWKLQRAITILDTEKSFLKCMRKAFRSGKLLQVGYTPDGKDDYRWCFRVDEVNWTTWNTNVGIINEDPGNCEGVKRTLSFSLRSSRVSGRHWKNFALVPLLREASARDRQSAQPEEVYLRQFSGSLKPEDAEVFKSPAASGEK
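Cells expressing TRPV1 were dye-loaded with Fluo-8 and read kinetically: 10 s baseline, 3 min after compound (agonist portion), then 2 min after EC20 capsaicin (allosteric enhancer portion). Calcium-bound dye fluorescence at 480/520 nm.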
Menin-MLL FL inh = displaces fluorescein MLL peptide from human menin | Fluorescence polarization, fluorescein-MLL peptide displacement from menin | FP activity change, % at 61.4 µM | 290,000 tested, under 10 active | AID 1766; inconclusive = falling polarisation curve, or a change in total fluorescence; inactive = total fluorescence flat and polarisation flat or rising; no compound was filed as active; the % refers to the polarisation; negative = inhibition;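 further: % of control where 0% means no effect; inhibitors lower the polarisation; unlabelled MLL peptide was the positive control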
Numbers without * were called inactive; ? = inconclusive; . = no result given; [ ] = dose if it differs, or a comment. Rows are unselected; overall some 5.3% were active at least once.

SMILES	gsp ag	gsp antag	ClpP mod	Sfp PPTase inh	CtBP-E1A inh	TRPV1 potentiator	Menin-MLL FL inh
Cc1nn(CC(=O)N2CCCCC2)c(=O)c2nn(-c3ccccc3)c(C)c12	?	6%	-1.0%	13%	3	2	4.9
O=C(Nc1ccccc1Cl)c1ccc(COc2ccc3c(c2)CCC3)cc1	-34%	-2%	-4.2%	8%	23	-6	5.9
COc1ccc(OC)c(C2C(C(=O)c3cccs3)=C(O)C(=O)N2c2cc(C)on2)c1 (stereo not given)	9%	-15%	1.6%	-9%	12	0	0.9
COC(=O)Cc1[nH]n(-c2nc3ccccc3s2)c(=O)c1C(C)=Nc1ccc(OC)cc1	?	-26%	-4.6%	9%	.	15	-3.0
Clc1ncn(C23CC4CC(CC(C4)C2)C3)n1	-10%	3%	1.7%	13%	-4	3	-0.2
O=C(C[C@H]1C/C=C\C[C@H](NC(=O)OCC2c3ccccc3-c3ccccc32)C(=O)OC[C@H]2CCCN2C1=O)NCCO	-27%	7%	-7.1%	.	8	.	.
O=C(c1cccc(C(F)(F)F)c1)C1CCCN(C(=O)/C=C/c2cnc[nH]2)C1 (stereo not given)	-47%[inhibitor]	8%	0.6%	6%	18	-2	.
CCS(=O)(=O)N1Cc2ccccc2CC1C(=O)Nc1ccc(OC)cc1 (stereo not given)	-51%[inhibitor]	3%	0.5%	0%	.	3	-5.3
O=C(Nc1cccc(Cl)c1)c1ccc(Cn2cc(Cl)cn2)cc1	-19%	2%	?	23%	0	-8	0.3
Cc1cc(=O)oc(C)c1C(=O)N1CCN(Cc2ccc3c(c2)OCO3)CC1	0%	3%	-1.3%	12%	1	-8	2.1

Entries of single compounds as entered above. Screens in order: gsp ag	gsp antag	ClpP mod	Sfp PPTase inh	CtBP-E1A inh	TRPV1 potentiator	Menin-MLL FL inh
Cc1nn(CC(=O)N2CCCCC2)c(=O)c2nn(-c3ccccc3)c(C)c12 is listed as ?	6%	-1.0%	13%	3	2	4.9
O=C(Nc1ccccc1Cl)c1ccc(COc2ccc3c(c2)CCC3)cc1 is listed as -34%	-2%	-4.2%	8%	23	-6	5.9

The list continues.
SMILES	gsp ag	gsp antag	ClpP mod	Sfp PPTase inh	CtBP-E1A inh	TRPV1 potentiator	Menin-MLL FL inh
O=C(NNC(=O)C1CCN(S(=O)(=O)c2ccccc2)CC1)c1ccccc1O	3%	-12%	3.4%	28%	-9	4	-1.1
N=c1c2c3c(sc2ncn1N)CCCC3	-42%[inhibitor]	7%	.	13%	11	18	-2.7
O=S(=O)(NCc1ccccn1)c1cc(OCC(F)(F)F)ccc1OCC(F)(F)F	-13%	-5%	-0.2%	11%	-9	-5	4.2
OC(CNCc1ccccc1F)COc1cccc2ccccc12 (stereo not given)	-5%	6%	.	5%	-3	14	-0.4
COc1ccc(S(=O)(=O)NCCCCOc2ccc(Cl)cc2)cc1	?	-15%	-2.0%	-9%	4	-11	3.6
CC1CCCN(S(=O)(=O)c2ccc([N+](=O)[O-])cc2)C1 (stereo not given)	-1%	10%	-0.4%	23%	.	5	-4.5
CC(C)(C)C(=O)CNCC(=O)C(C)(C)C	-5%[15.4 µM]	-12%	.	-10%	5	-12	2.0
O=C(N/N=C/C=C\c1ccccc1[N+](=O)[O-])c1ccncc1	7%[15.4 µM]	-2%	.	11%	12	3	-10
CCC(C)[C@H](NC(=O)NCc1ccccn1)C(=O)OC (stereo not given in full)	-2%	-1%	-2.3%	-6%	5	-17	-1.7
NCCCC[C@@H]1NC(=O)c2cc([N+](=O)[O-])cc(F)c2NCCCC[C@@H](C(N)=O)NC(=O)[C@H](CCC(N)=O)NC1=O	-14%	11%	-12%	7%	-23	3	-1.9
CCO[C@@H]1OC(C(N)=O)=C[C@H](C(C)(C)C)[C@H]1CCCO	.	10%	0.4%	.	0	.	.
COc1cc([N+](=O)[O-])ccc1NC(=O)COC(=O)c1n[nH]c2ccccc12	8%[15.4 µM]	40µM*	-0.3%	1%	-4	2	4.4
COC(=O)c1cc(OC)c(OC)cc1N=CC1=C(O)CC(C)(C)CC1=O	-53%	-1%	-4.4%	16%	-1	-11	-0.5
COc1ccc(OC)c(NC(=O)CN2C(=O)NC(C)(c3ccc4c(c3)OCCO4)C2=O)c1 (stereo not given)	2%	11%	1.7%	.	0	-5	.
O=C(Cc1ccccc1F)Nc1cc(S(=O)(=O)N2CCCCC2)ccc1N1CCOCC1	0%	.	-0.7%	.	2	.	.
COCCCNC(=O)[C@H](CSCc1ccccc1)N1Cc2ccccc2C1=O	6%[15.4 µM]	-4%	.	15%	9	-9	1.2
Cc1cc(N=Cc2c(O)ccc3cc(Br)ccc23)no1	?	-7%	-1.8%	7%	0	6	5.1
CCC(C(=O)O)n1nnc(-c2ccc(-c3ccc(OC)cc3)cc2)n1 (stereo not given)	-69%[inhibitor]	-31%	?	14%	4	6	2.5
COc1cccc(OCC(=O)NN=C2c3ccccc3-c3ccccc32)c1	-2%	3%	13%	79µM*	-7	.	1.0
COc1cc(C[C@@H]2C(=O)OC[C@H]2Cc2ccc(OC)c(OC)c2)ccc1O	.	2%	1.3%	.	5	-28	.
COc1cccc(NC(=O)CN(C)C(=O)/C=C/c2ccc3ccccc3n2)c1	-5%	-2%	?	.	-18	-22	.
C/C(=N\NC(=O)c1cccc(C)c1O)c1ccc(NC(=O)Cc2ccccc2)cc1	-27%	-11%	-3.5%	15%	2	7	.
O=C(COC(=O)c1cccc(S(=O)(=O)N2CCCCC2)c1)NCc1ccccc1	-3%[15.4 µM]	1%	-3.4%	.	-23	-19	.
COCCn1c(=O)[nH]c(=O)c2cc(C(=O)c3cc(OC)ccc3O)cnc21	-14%	-17%	3.5%	10%	-5	0	4.0
O=[N+]([O-])c1ccc(O)c(C=Nc2ccc3nc(-c4ccccc4)[nH]c3c2)c1	?	-23%	96%	19%	-17	6	2.2
CN(C)c1cccc(C(=O)N2CCCC(CCC(=O)NCc3ccccc3F)C2)c1 (stereo not given)	-23%	-16%	-7.9%	-5%	-7	?	-0.4
C=CCSc1nnc(CNS(=O)(=O)c2ccc(C)cc2)n1C	-2%	1%	0.6%	6%	9	3	.
COC(=O)c1cc(NS(=O)(=O)c2ccc(N3CCC(C)CC3)c([N+](=O)[O-])c2)cc(C(=O)OC)c1	-18%[15.4 µM]	-34%	0.8%	11%	-1	24	2.0
Cc1cccc(OCc2nnc(SCC(=O)NC3CCCC3)n2C)c1	-5%[15.4 µM]	14%	-0.5%	17%	-1	3	2.1
CS(=O)(=O)NCc1ccc(C(=O)NC2CCCCC2)cc1	-4%	13%	0.0%	21%	11	-5	3.6

Sorted by formula weight (smallest number first): 13 of the compounds above
SMILES	gsp ag	gsp antag	ClpP mod	Sfp PPTase inh	CtBP-E1A inh	TRPV1 potentiator	Menin-MLL FL inh
CS(=O)(=O)NCc1ccc(C(=O)NC2CCCCC2)cc1	-4%	13%	0.0%	21%	11	-5	3.6
Cc1cc(N=Cc2c(O)ccc3cc(Br)ccc23)no1	?	-7%	-1.8%	7%	0	6	5.1
CCC(C(=O)O)n1nnc(-c2ccc(-c3ccc(OC)cc3)cc2)n1 (stereo not given)	-69%[inhibitor]	-31%	?	14%	4	6	2.5
O=[N+]([O-])c1ccc(O)c(C=Nc2ccc3nc(-c4ccccc4)[nH]c3c2)c1	?	-23%	96%	19%	-17	6	2.2
Cc1cccc(OCc2nnc(SCC(=O)NC3CCCC3)n2C)c1	-5%[15.4 µM]	14%	-0.5%	17%	-1	3	2.1
COCCn1c(=O)[nH]c(=O)c2cc(C(=O)c3cc(OC)ccc3O)cnc21	-14%	-17%	3.5%	10%	-5	0	4.0
COc1cc(C[C@@H]2C(=O)OC[C@H]2Cc2ccc(OC)c(OC)c2)ccc1O	.	2%	1.3%	.	5	-28	.
COc1cccc(NC(=O)CN(C)C(=O)/C=C/c2ccc3ccccc3n2)c1	-5%	-2%	?	.	-18	-22	.
COCCCNC(=O)[C@H](CSCc1ccccc1)N1Cc2ccccc2C1=O	6%[15.4 µM]	-4%	.	15%	9	-9	1.2
C/C(=N\NC(=O)c1cccc(C)c1O)c1ccc(NC(=O)Cc2ccccc2)cc1	-27%	-11%	-3.5%	15%	2	7	.
CN(C)c1cccc(C(=O)N2CCCC(CCC(=O)NCc3ccccc3F)C2)c1 (stereo not given)	-23%	-16%	-7.9%	-5%	-7	?	-0.4
O=C(Cc1ccccc1F)Nc1cc(S(=O)(=O)N2CCCCC2)ccc1N1CCOCC1	0%	.	-0.7%	.	2	.	.
COC(=O)c1cc(NS(=O)(=O)c2ccc(N3CCC(C)CC3)c([N+](=O)[O-])c2)cc(C(=O)OC)c1	-18%[15.4 µM]	-34%	0.8%	11%	-1	24	2.0

(continued)
SMILES	gsp ag	gsp antag	ClpP mod	Sfp PPTase inh	CtBP-E1A inh	TRPV1 potentiator	Menin-MLL FL inh
COCC(=O)N1CCC(n2nnc3cc(F)ccc32)CC1	39%	11%	-0.4%	27%	12	7	-1.4
COc1ccc(C2CC(c3cccs3)=NN2C(=O)COC(=O)C2CCCCC2)cc1OC (stereo not given)	-1%[15.4 µM]	0%	-0.9%	-10%	5	9	1.8
CCc1ccc(N2C(=O)C3CCCN3C2=S)cc1 (stereo not given)	-10%[15.4 µM]	4%	.	4%	7	-2	-6.7
COc1cccc(C(=O)Oc2c(Br)cc(Br)cc2/C=N/NC(=O)c2cc(C)[nH]n2)c1	?	?	-0.3%	11%	.	3	10.0
Cc1ccnc(NC(=S)NC(=O)c2cncc(Br)c2)c1	?	11%	6.8%	9%	6	-4	6.5
COc1ccc(C2C(C(=O)O)CC(=O)N2c2ccc(OC)cc2)cc1 (stereo not given)	-1%	-3%	-4.7%	9%	2	-9	-2.0
COc1ccc(-c2noc(N3CCC(C(=O)Nc4cc(OC)ccc4OC)CC3)n2)cc1	?	-22%	-2.9%	19%	-14	1	-7.9
O=C(O)COc1ccc(C=C2SC(=S)N(c3ccccc3)C2=O)cc1	-6%	-1%	.	.	-92*	.	.
Clc1ccc(CN2CCSCC2)cc1Cl	-17%	-9%	-0.3%	-27%	3	1	-1.8
CCC(C)NC(=O)C1CCN(S(=O)(=O)c2ccc(Br)s2)CC1 (stereo not given)	-2%[15.4 µM]	4%	0.8%	-1%	1	-10	1.8
